# From PubChem BioAssay
# Vaccinia pol inh – vaccinia E9 polymerase processive synthesis inhibition; in vitro processive DNA synthesis, absorbance read-out; stronger effect = lower value; some inactives read as strong as hits; normalized absorbance, % (no concentration beside the values); 46,000 compounds, 0.94% hits; AID 493162;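 active = replicate mean up to 90% and picked by the depositor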;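 note: 100% = median of the test wells of a plate; 100 nL library stock went into each well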
# An asterisk follows results filed as active.
# The first 2 entries as a preview:
SMILES,Vaccinia pol inh
O=C1/C(=C\c2ccc(F)cc2)CN(Cc2ccccc2)C/C1=C\c1ccc(F)cc1,100
Cc1cc(NS(=O)(=O)c2ccc(NC(=O)c3ccco3)cc2)no1,67

# This part in full, previewed entries included:
SMILES,Vaccinia pol inh
O=C1/C(=C\c2ccc(F)cc2)CN(Cc2ccccc2)C/C1=C\c1ccc(F)cc1,100
Cc1cc(NS(=O)(=O)c2ccc(NC(=O)c3ccco3)cc2)no1,67
CC(=O)Nc1nc(NC(C)=O)nc(-c2ccccn2)n1,100
COc1ccc(C(NC(=O)Cc2cc3ccccc3[nH]2)C(=O)Nc2ccc3c(c2)OCCO3)cc1 (stereo not drawn),103
Nc1ccccc1NC(=O)c1nc2ccccc2nc1C(O)C(O)CO (stereo not drawn),103
Cn1cnnc1SCc1ccc(C(=O)O)cc1,101
CCCc1nc(S(=O)(=O)c2ccc(C)cc2)c(NC)o1,100
CSc1ccc(CN2CCN(Cc3cccc(C)c3)CC2)cc1,90
Cc1c(C(=O)Nc2ccc3ccccc3c2)oc2ccccc12,100
CC(=O)Nc1ccc(C(=O)OCC(=O)NCc2ccccc2Cl)cc1,99
COc1ccccc1Nc1ccc2ccccc2c1,98
O=C1CC(Cc2ccccc2)C(=O)N1c1nccs1 (stereo not drawn),100
CC(C)(C)C(=O)N(Cc1nc(-c2ccccc2)no1)C1CCCCC1,109
CCOC(=O)c1cnc2c(c(C)nn2CC)c1Cl,98
c1ccc(CCNc2ncnc3nc[nH]c23)cc1,100
CSc1ncc(C(=O)N2CCCc3ccccc32)c(C)n1,104
CCOc1ccc(NC(=O)N(CCN2CCOCC2)Cc2ccc3c(c2)CCCN3CC)cc1,98
Cc1ccc(NC2=NC(c3ccccc3)n3c(nc(C)cc3=O)N2)cc1 (stereo not drawn),102
CSc1sc(C(=O)O)c(-c2cccs2)c1C#N,90
O=C(O)[C@H](Cc1ccccc1)N1C(=O)c2ccncc2C1=O,93
OC(CCN1CCCCC1)(c1ccccc1)c1ccccc1,100
NS(=O)(=O)c1cc(C(=O)O)c(NCc2ccco2)cc1Cl,100
O=C(CSc1cccc[n+]1[O-])NC1CCCCCC1,94
COc1ccccc1N=Cc1ccsc1S,93
O=C(O)CCC(=O)N1CC(=O)Nc2ccccc21,104
Oc1ccc(N=Cc2ccc[nH]2)cc1N=Cc1ccc[nH]1,97
O=C(O)c1ccc2c(c1)ncn2C1CCCCC1,96
COc1cc(-c2nc3ccccn3c2/N=C/c2cccc(Cl)c2Cl)ccc1O,100
Cc1ccc(NC(=S)Nc2ccc(C)cc2)cc1,94
O=C(OCC1CCCO1)c1cc(F)c(F)c(F)c1F (stereo not drawn),91
CC(C)c1cc(C(C)C)c(S(=O)(=O)NCCCN2CCOCC2)c(C(C)C)c1,100
C[C@@H]1O[C@@H](OC[C@H]2O[C@@H](Oc3c(-c4ccc(O)c(O)c4)oc4cc(O)cc(O)c4c3=O)[C@H](O)[C@@H](O)[C@@H]2O)[C@H](O)[C@H](O)[C@H]1O,94
CS/C(NC(=O)c1ccccc1)=C1\CCCCC1=O,102
CC1=C(C(=O)Nc2cccc(C(F)(F)F)c2)C(c2ccccc2)C2=C(CCCC2=O)N1 (stereo not drawn),100
COc1cc(Cl)c(C)cc1NC(=S)N(Cc1ccccc1C)CC1CCC(C(=O)O)CC1 (stereo not drawn),94
C=CCc1cccc(O)c1O,97
COc1ccc(NC(=O)CS(=O)(=O)c2cn(Cc3cccc(F)c3)c3ccccc23)cc1,100
c1ccc2c(c1)nnn2CN1CCCCC1,111
Cc1nn(-c2ccccc2)nc1CNC(=O)c1cccs1,100
Cc1cccc(NC(=O)c2cnn(-c3ccc(F)cc3)c2C2CCN(C(=O)OC(C)(C)C)CC2)c1C,90
S=C(Nc1cccnc1)NC(c1ccccc1)c1ccccc1,100
O=C(O)c1ccccc1NCc1ccc(Cl)cc1,53*
CC(C)Cn1c(NN)nc2ccccc21,102
CC(=O)Nc1cccc(Oc2nnc(-c3ccccc3)c3ccccc23)c1,102
CN1C(=O)CSc2ccc(NC(=O)N3CCc4ccccc43)cc21,93
CC(C)Sc1nnc(CSc2ncccn2)n1-c1ccc(F)cc1,75
N#Cc1c(-c2ccccc2)n2c(-c3ccccc3)nn(-c3ccccc3)c2nc1=O,96
CC(C)c1ccc(C(=O)OCC(=O)NCc2ccco2)cc1,104
N#CCCN(CCc1ccccn1)S(=O)(=O)c1ccc2c(c1)CCO2,103
Cc1cccc(C)c1NC(=O)C1(N(C)C(=O)CSc2nc3ccccc3o2)CCCCC1,101
# Continuation:
SMILES,Vaccinia pol inh
COc1ccc(N2CCC(CNS(=O)(=O)c3cccc(Cl)c3)C2)cc1 (stereo not drawn),93
Cc1ccc(-c2nn(CCC(=O)Nc3cccc(C(F)(F)F)c3)c(=O)c3ccccc23)cc1,101
Cc1sc(=[N+]2CCCCC2)sc1SCC(=O)O,101
Cc1cc(C)c(CN(C)C)c(O)c1,87
CN(C(=O)COC(=O)Cc1ccc(Br)cc1)c1ccccc1,102
CCc1ccc(/C=C/C2=CC(C)(C)NC(=S)N2)cc1,92
Cc1nc2cc(COC(=O)c3ccccc3)ccc2s1,93
Cc1ccc(C2=NS(=O)(=O)N(C)C(C(=O)N3CCCCC3C)=C2)cc1 (stereo not drawn),99
CCc1ccc(N2NC(=O)/C(=C/c3ccc4c(c3)n(C)c(=O)n4C)C2=O)cc1,100
O=C(C(Cc1ccccc1)NS(=O)(=O)c1cccc2nsnc12)N1CCC2(CC1)OCCO2 (stereo not drawn),90
CCNc1c(NS(=O)(=O)c2cccc(C#N)c2)c(=O)oc2ccccc12,103
Fc1cc(F)cc(NC(=S)NCCN(C2CCCCC2)C2CCCC2)c1,102
CCCc1c(C)nc(SCC(=O)C(C)(C)C)nc1OC(=O)N(C)C,108
CCOC(=O)C1=C(N)N2C(=O)C(C)SC2=C(C(=O)OC)C1c1cccc(OC)c1 (stereo not drawn),100
Cc1c(N=c2c(=O)c3ccccc3c2=O)c(=O)n(-c2ccccc2)n1C,97
O=C(NCC(=O)c1ccccc1)/C(=C/c1cccs1)c1ccccc1,102
O=C(Nc1nc2ccc(Cl)cc2s1)C1COc2ccccc2O1 (stereo not drawn),100
O=C(c1ccco1)N1CCN(c2ncnc3nc[nH]c23)CC1,103
CCOc1ccccc1-n1nnc(C(N)=O)c1C,99
CCOC(=O)C1C2C=CC3(CN(CC(C)C)C(=O)C13)O2 (stereo not drawn),100
Clc1ccccc1/C=N/c1nc2ccccc2n1CCN1CCCCC1,103
O=C(NCc1nc(-c2ccccc2)cs1)c1ccccc1,100
O=C1C[C@@H](c2ccc(O)cc2)Oc2cc(O)cc(O)c21,100
Nc1nc(C23CC4CCC(CC(C4)C2)C3)cs1,100
O=C(Cc1cccc2ccccc12)N1CCN(Cc2ccccc2)CC1,102
O=C(Cn1c2ccccc2c2cn[nH]c(=O)c21)N1CCCCC1,98
Nc1nonc1C(=O)NCc1ccco1,100
CC(C)(C)C(=O)Nc1sc2c(c1C#N)CCN(Cc1ccccc1)C2,101
Cc1cc(C)n(-c2n[nH]c(=S)n2N)n1,99
CC1=CC(=O)OC1Cc1ccc2ccccc2n1 (stereo not drawn),101

# Sorted by length of the SMILES (high to low): some entries from above.
SMILES,Vaccinia pol inh
O=C(C(Cc1ccccc1)NS(=O)(=O)c1cccc2nsnc12)N1CCC2(CC1)OCCO2 (stereo not drawn),90
CCOC(=O)C1=C(N)N2C(=O)C(C)SC2=C(C(=O)OC)C1c1cccc(OC)c1 (stereo not drawn),100
Cc1c(N=c2c(=O)c3ccccc3c2=O)c(=O)n(-c2ccccc2)n1C,97
CCNc1c(NS(=O)(=O)c2cccc(C#N)c2)c(=O)oc2ccccc12,103
CC(C)(C)C(=O)Nc1sc2c(c1C#N)CCN(Cc1ccccc1)C2,101
O=C(NCC(=O)c1ccccc1)/C(=C/c1cccs1)c1ccccc1,102
Fc1cc(F)cc(NC(=S)NCCN(C2CCCCC2)C2CCCC2)c1,102
O=C1C[C@@H](c2ccc(O)cc2)Oc2cc(O)cc(O)c21,100
CCOC(=O)C1C2C=CC3(CN(CC(C)C)C(=O)C13)O2 (stereo not drawn),100
O=C(c1ccco1)N1CCN(c2ncnc3nc[nH]c23)CC1,103
O=C(Nc1nc2ccc(Cl)cc2s1)C1COc2ccccc2O1 (stereo not drawn),100
O=C(NCc1nc(-c2ccccc2)cs1)c1ccccc1,100
Nc1nc(C23CC4CCC(CC(C4)C2)C3)cs1,100
Cc1cc(C)n(-c2n[nH]c(=S)n2N)n1,99
CC1=CC(=O)OC1Cc1ccc2ccccc2n1 (stereo not drawn),101
Nc1nonc1C(=O)NCc1ccco1,100

# (continued)
SMILES,Vaccinia pol inh
Oc1c(Cl)cc(Cl)cc1C1Nc2cccc3cccc(c23)N1,97
COc1ccc(C2=NC(c3sccc3C)NC(c3cc(Cl)ccc3O)C2)cc1 (stereo not drawn),86
Nc1ccccc1C(=O)c1ccccc1,101
ClC(=Nc1ccccc1)c1ccccc1,100
COc1ccc(CCN=C2SCC(=O)N2Cc2ccccc2)cc1OC,100
COc1ccc2[nH]c3c(c2c1)CCNC3CC(=O)O (stereo not drawn),104
COC(=O)c1ccc(OCc2ccc(Cl)nc2)cc1,100
O=S(=O)(Cc1ccccc1)Nc1noc2ccccc12,88
COc1cccc(-c2cc(=O)c3ccccc3o2)c1N,100
CCC(C)NS(=O)(=O)c1ccc(-n2cccn2)cc1 (stereo not drawn),103
Cc1ccc(-c2ccc(=O)n(CC(=O)NC3CCCC3)n2)cc1,103
CC1(C)CC(=O)c2sc(NC(=O)CCOc3ccccc3)nc2C1,94
CCSC1=C(C#N)C(=O)NC(c2ccco2)S1 (stereo not drawn),90
CC(=O)Nc1ccc(-n2c(C)nc(=O)c(-c3ccccc3)c2C)cc1,100
Cc1nc2ccccc2nc1SCC(=O)N1CCCC1,99
CCCc1nc2ccccc2n1C(=S)SC,106
O=c1oc(-c2cccs2)nc2c(Br)cc(Br)c(F)c12,104
O=C(c1ccc2c(Cl)c3c(nc2c1)CCCC3)N1CCCCCC1,101
COc1ccc(CC(=O)c2ccccc2C(=O)O)cc1,101
O=C(/C=C/c1ccco1)NCc1ccco1,98
CCCOC(=S)NC1OCC(OC(C)=O)C(OC(C)=O)C1OC(C)=O (stereo not drawn),100
O=C(Nc1nc2ccccc2[nH]1)c1cc(F)c(F)cc1Cl,101
C[C@]12CCC(=O)C=C1CCC1C2[C@@H](O)C[C@@]2(C)C1CC[C@]2(O)C(=O)COC(=O)CCC(=O)O (stereo partly drawn),97
CCCCN1COc2c(cc(Cl)c3cccnc23)C1,100
NNC(=O)CSCc1ccc(Cl)cc1,100
O=C(NCc1ccc2c(c1)OCO2)C1CCN(S(=O)(=O)c2ccc(Br)s2)CC1,99
Oc1ccc2cc(Br)ccc2c1/C=N/n1cnnc1,99
c1ccc(OCCSc2nnc3sc4ccccc4n23)cc1,102
COc1ccccc1-n1c(Cc2ccc(Cl)cc2)n[nH]c1=S,100
Nc1ccccc1/C=C1\C(=O)Nc2ccccc21,108
COc1ccc(-c2c(N)nc(-c3ccc(Cl)cc3)nc2SC)cc1,99
Cc1onc(-c2ccccc2)c1CN1C(=O)c2ccccc2S1(=O)=O,101
Fc1ccc(N=Cc2ccncc2)cc1F,92
CCN(CC)C(=S)Oc1ccc(I)cc1,107
Cc1nc2cc(-c3ccccc3)nn2c(C)c1CCC(=O)N1CCc2ccccc21,90
Oc1c(C=NCc2ccccc2)[nH]c2ccc(Br)c(Cl)c12,100
CN1/C(=C2/SC(=S)N(c3ccccc3)C2=O)Sc2ccccc21,100
Cc1nc2ccc(NC(=O)c3cccs3)cc2o1,101
COCCN1C(=O)c2ccccc2C(C(=O)Nc2ccc(C(=O)OC)cc2)C1c1cccs1 (stereo not drawn),84
Cc1ccc(C(=O)Cn2cccn2)cc1,109
CC1CCCN(S(=O)(=O)c2ccc(C(=O)Nc3ccccc3-c3nc4ccccc4[nH]3)cc2)C1 (stereo not drawn),100
Cc1ccc(NC(=O)c2cccc(OC(=O)N(C)c3ccccc3)c2)cc1C,98
CS(=O)(=O)c1sc(C(=O)Nc2ccccc2Cl)c2c1C=CCC2,108
CN(C)c1cccc(N2Cc3ccccc3C2=N)c1,107
O=C(O)CCC(=O)NCc1ccccc1,100
Cc1ccc(NC(=O)c2ccco2)c(C(=O)c2ccccc2)c1,84
CCn1cnc2scc(-c3ccccc3)c2c1=O,103
O=C1CC2(CCCc3ccccc32)C(=O)N1CN1CCOCC1 (stereo not drawn),99
CCOC(=O)C1=NNC2C(=O)N(c3cccc(Cl)c3C)C(=O)C12 (stereo not drawn),100
CCn1c2ccccc2n2cc(-c3ccccc3)nc12,94
# Additional results follow.
SMILES,Vaccinia pol inh
COC(=O)c1c(-c2ccc(C)c(C)c2)csc1NC(=O)C1CCCCC1C(=O)O (stereo not drawn),100
O=c1cc(-c2ccccc2)nc2nc(C(F)(F)F)[nH]n12,97
Cc1ccc(C23CC4CC(CC(C(=O)NC5=NCCS5)(C4)C2)C3)cc1,100
O=C(Nc1nnc(SCC(=O)N2CCc3ccccc32)s1)C1CCCCC1,99
CCC(C(=O)NCc1ccc2c(c1)cc(C)n2C)c1ccccc1 (stereo not drawn),100
Cc1ccc2c(c1)c(C)c(C)n2CC(O)CN1CCCCC1 (stereo not drawn),105
CCS(=O)(=O)N1CC=C(c2c(C)n(CC(=O)N3CCCC3)c3ccccc23)CC1,102
COc1ccc(OCCCC(=O)O)cc1,104
CCc1ccc(NS(=O)(=O)c2ccc3c(c2)OCCN3C)cc1,95
CCN(CC)S(=O)(=O)c1ccc(C(=O)NCCc2c[nH]c3ccccc23)cc1,104
Cc1sc2nc(SCc3cc(=O)[nH][nH]3)nc(N)c2c1C,101
CCCCN1C(=O)C(O)(CC(=O)c2c(C)coc2C)c2cc(Br)ccc21 (stereo not drawn),102
CCCCN1CCCc2cc(CN(Cc3ccco3)C(=S)Nc3ccc(Cl)cc3OC)ccc21,104
COC(=O)c1cnn(C(=O)c2ccccc2)c1NC(=S)Nc1ccc(C)cc1C,99
Oc1ccccc1Oc1c(F)c(F)nc(N2CCCC2)c1F,100
O=C(Nc1ncc(Cc2ccccc2)s1)c1ccccc1,103
CCN1CCN(CCCNC(=O)c2cc3cc4ccc(Cl)cc4nc3o2)CC1,94

# Some of the compounds tested. The share of hits here may be higher or lower than overall.
